Screening results: PubChem BioAssay, several laboratories
UCH37 DUB inh = inhibitors of human UCH37 deubiquitinase, primary screen, biochemical, Ub-AMC cleavage, fluorescence; AID 588478, 2011; purified proteasome/UCH37; inhibition, % (concentration not given with the values); actives 0.33% (n = 330,000);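 active = mean of two replicates above 20%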;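 note: 0% = compound-free wells with enzyme and 100% = wells lacking proteasome; stock transfer was 100 nL into about 20 µL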
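Schedule: 30 min plus 25 min, room temperature / Material: human UCH37 within purified proteasomes / Technique: AMC fluorescence intensity at 355/460 nm / Buffer or medium: pH 7.4 Tris-HCl (50 mM) with ovalbumin, ATP-MgCl2, DTT / Controls: wells without proteasome as full block, compound-free enzyme plus substrate as uninhibited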
HNF4A DNA FP = change in binding of human HNF4A to DNA, primary screen, biochemical, fluorescence polarization, FITC-DNA | actives 0.3% (n = 360,000) | AID 1224865, 2016 | 1 h | activity change, % at 10 µM; in the data active = activity change above about 30%, passing the limit was not always enough;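 note: controls were the assay level and a saturating level of protein; the project sought stronger binding though the title names inhibitors; some compounds called inactive have numbers as strong as hits; positive values seem to mean higher polarization but the record does not say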
Target sequence (P41235 whole entry, looked up): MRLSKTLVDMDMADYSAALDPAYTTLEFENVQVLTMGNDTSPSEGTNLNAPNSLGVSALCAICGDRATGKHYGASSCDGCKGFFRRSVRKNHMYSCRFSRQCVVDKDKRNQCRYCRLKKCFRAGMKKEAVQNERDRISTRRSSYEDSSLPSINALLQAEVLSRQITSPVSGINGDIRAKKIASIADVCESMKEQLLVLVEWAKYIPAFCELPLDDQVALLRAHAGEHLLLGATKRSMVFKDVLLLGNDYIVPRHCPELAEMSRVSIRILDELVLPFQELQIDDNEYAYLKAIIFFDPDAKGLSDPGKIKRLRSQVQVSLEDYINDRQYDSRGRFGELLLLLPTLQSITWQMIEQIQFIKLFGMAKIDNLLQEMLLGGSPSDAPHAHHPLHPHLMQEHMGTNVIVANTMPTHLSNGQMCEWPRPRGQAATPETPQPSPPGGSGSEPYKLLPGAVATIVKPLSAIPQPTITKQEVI
RanGTP-Imp inh = inhibitors of RanGTP-importin-beta interaction, primary screen, biochemical, FRET, CFP-Ran, YFP-importin-beta, homogeneous. actives 1.1% (n = 300,000). cell-free CFP-Ran/YFP-importin-beta FRET ratio. inhibition, % (test concentration not listed). AID 2216, 2009. Ran GTPase (GTP-bound) - importin-beta complex;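 active = most replicates above 15%; inconclusive = exactly half above 15%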;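 note: 0% = DMSO wells and 100% = Ran loaded with GDP instead of GTP; wells of about 40 µL received 100 nL stock; the first replicate is given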
Vif TR-FRET = inhibitors of Vif binding to APOBEC3G peptide, primary screen, biochemical, TR-FRET, GST-Vif 1-94, biotin-A3G peptide, dose response retest (AID 1117319); TR-FRET GST-Vif / biotin-A3G peptide binding; higher % means a stronger effect; test concentration not given here; strong numbers were not always called active; actives 0.57% (n = 260,000); one-dose inhibition, %; IC50 in µM for titrated hits; Virion infectivity factor (Human immunodeficiency virus type 1 group M subtype B (isolate …;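 active = above the screen mean plus three standard deviations and confirmed in dose response; inconclusive = results disagree or hit not tested in dose response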;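 note: Vif residues 1-94 fused to GST binding biotinylated APOBEC3G peptide 110-148; 0% = full assay without inhibitor and 100% = GST in place of GST-Vif; retest series ran down from 100 µM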
AF4-AF9 inh = inhibitors of AF4 peptide binding to AF9, primary screen, biochemical, AlphaScreen, biotin-AF4 peptide, FLAG-AF9, single point | inhibition, % at 10 µM | actives 0.47% (n = 350,000) | AID 651704, 2012;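 active = every replicate reaching a set inhibition limit, whatever the replicate mean, cut at about 25% in these data; inconclusive = mean inhibition reaches that limit but some replicates miss it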;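 note: 0% = plate neutral control median and 100% = total signal loss; the record names both 10 and 1 µM as test concentration; the first replicate is given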
Target sequence (P42568 whole entry, looked up): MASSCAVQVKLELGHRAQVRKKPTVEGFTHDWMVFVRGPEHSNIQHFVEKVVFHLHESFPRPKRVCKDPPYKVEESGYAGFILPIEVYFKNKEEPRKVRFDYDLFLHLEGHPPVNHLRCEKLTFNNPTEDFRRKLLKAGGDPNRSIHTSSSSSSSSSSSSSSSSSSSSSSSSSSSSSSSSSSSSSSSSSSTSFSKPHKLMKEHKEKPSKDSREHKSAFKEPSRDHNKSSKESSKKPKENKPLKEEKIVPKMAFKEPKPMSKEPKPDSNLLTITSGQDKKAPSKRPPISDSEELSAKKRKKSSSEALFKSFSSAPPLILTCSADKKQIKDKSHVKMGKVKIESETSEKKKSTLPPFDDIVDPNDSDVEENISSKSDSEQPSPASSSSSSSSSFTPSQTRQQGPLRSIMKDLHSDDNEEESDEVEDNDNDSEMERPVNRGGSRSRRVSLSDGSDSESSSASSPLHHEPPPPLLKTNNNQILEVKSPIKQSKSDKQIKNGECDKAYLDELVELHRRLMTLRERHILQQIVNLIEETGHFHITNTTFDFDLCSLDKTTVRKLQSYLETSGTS
E coli growth = E. coli growth inhibition, primary screen, OD600; Escherichia coli growth, 23 h; stronger effect = lower value; OD600 absorbance (test concentration not listed); actives 0.21% (n = 330,000);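 active = OD600 absorbance below the run mean of sample wells minus 3.6 SD, in any replicate, cut at about 0.56 in these data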;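 note: stock transfer was 300 nL into about 60 µL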
FGF22 binding = binders of human FGF22 protein, primary screen, FGF22 synaptogenesis inhibitor project, biophysical, thermal shift, single point; calls only at 9.99 µM; recombinant FGF22 thermal shift, SYPRO orange fluorescence; percent of sucrose octasulfate shift, DMSO zero; Fibroblast growth factor 22 (Homo sapiens), Q9HCT0; actives 1.5% (n = 340,000); AID 651658, 2012;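 active = melting point raised past a set limit in the mean and every replicate; inconclusive = no clear call; three in four hits are not shown here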
The depositor's hits bear a star; i = inactive; ? = inconclusive; . = not tested or not shown; & = joins results of further samples. This is a subset (hit frequency here may not be typical).

Sequence of screens: UCH37 DUB inh	HNF4A DNA FP	RanGTP-Imp inh	Vif TR-FRET	AF4-AF9 inh	E coli growth	FGF22 binding
1. COc1ccc(NC(=O)N(C)C[C@H]2Oc3ccc(NC(=O)Cc4ccccc4)cc3C(=O)N([C@H](C)CO)C[C@@H]2C)cc1
  -4.8	1.3	.	.	0.1&0.2	.	i
2. O=C(NCCN1C(=O)S/C(=C\c2ccc(Cl)cc2)C1=O)C1=COCCO1
  -9.6	-2.1	.	3.3%	0.8	0.712	i
3. Cn1nc(Cc2cccc3ccccc23)c(C#N)c1N
  0.9	0.5	0.8	.	-21.3	0.659	i
4. O=C(Nc1ccccc1F)c1ccc2c(c1)OCO2
  2.7	0.1	7.4	-0.2%	-0.1	0.661	i
5. Cc1ccccc1-n1c(O)c(/C=C/C=Nc2ccccc2)c(=O)[nH]c1=O
  7.2	170.9	20.2*	-1.4%	.	.	.
6. CCN(C(=O)CSc1cc(C)c2ccc(OC)cc2n1)C1CCS(=O)(=O)C1 (stereo unspecified)
  0.4	-1.1	0.1	?	-2.7	0.67	i
7. COc1ccc(Cl)c(NCCC(=O)O)c1
  0.1	0.2	-2.9	65.5%	.	0.727	.
8. Cc1cc(C)c(S(=O)(=O)ON2C(=O)c3ccccc3C2=O)cc1C
  -3.3	-1.0	6.2	9.4%	.	0.654	.
9. O=C(CNS(=O)(=O)c1cccs1)N1CCCC1
  3.5	0.6	2.9	-0.6%	.	0.749	.
10. COc1ccc(NC(=O)c2ccc(S(=O)(=O)N3CCCCCC3)cc2)c(OC)c1
  1.7	3.4	3.4	20.3%	3.4	0.647	i
11. S=c1[nH]nc(C2CC2c2ccc(Cl)cc2)n1-c1ccc(Cl)cc1 (stereo unspecified)
  3.7	0.4	-2.1	.	0.1	0.7	i
12. O=C(N/C(=C\c1ccc(Cl)cc1)C(=O)N1CCOCC1)c1ccco1
  2.5	-2.6	-4.2	.	-0.8	0.701	i
13. C=Cn1cc[n+](CC(=O)c2ccc(OC)cc2)c1
  1.6	-1.6	0.5	-9.7%	3.6	0.629	i
14. CC(=O)c1cc2c(cc1NC(=O)c1ccc(Cl)cc1)OCCO2
  -173.9	-0.1	2.5	.	2.5	0.628	i
15. CCC(=O)Oc1ccc(C(=O)Nc2cccc(C(=O)c3ccccc3)c2)cc1
  1.8	-4.7	-4.8	-3.2%	.	0.671	.
16. CCOc1ccc(C(C(=O)NCC2CCCO2)N(Cc2cccs2)C(=O)c2snc(C(N)=O)c2N)cc1 (stereo unspecified)
  -34.4	1.6	3.5	2.9%	-2.0	0.718	i
17. O=c1oc(CCCO)cc2ccccc12
  -0.4	2.7	.	.	-3.4	0.662	i
18. CS(=O)(=O)N(CC(=O)N1CCOCC1)Cc1ccc(Cl)cc1
  -0.4	1.1	6.3	4.6%	.	0.732	.
19. CCCN(CC(=O)Nc1ccc(F)c(F)c1F)C(=O)C1=COCCO1
  3.4	7.7	-2.0	0.1%	-1.0	0.648	i
20. CNc1nc(NC#N)nc(SC)n1
  0.1	1.5	0.9	12.7%	6.7	0.71	i
21. CCCCOc1ccc(C(=O)Oc2ccc(C)nc2)cc1
  2.5	-0.3	-3.2	28.2%	-43.0	0.676	i
22. CCn1nc(NS(=O)(=O)c2ccc(NC(C)=O)cc2)c2cc3ccccc3nc21
  5.5	0.1	1.4	.	4.3	0.701	i
23. O=C(CCCn1c(=O)[nH]c2ccsc2c1=O)N1CCN(Cc2ccc3c(c2)OCO3)CC1
  3.6	1.3	-0.9	-4.4%	.	0.697	.
24. CC(C)(C)NC(=O)Cn1nnc(-c2ccccc2NC(=O)c2ccco2)n1
  -2.5	-0.4	-4.9	-28.3%	.	0.722	.
25. O=C(Nc1ccc(N2CCOCC2)cc1)C1CCN(C(=O)OCc2ccccc2)CC1
  0.5	-1.7	-1.1	10.9%	-8.6	0.657	i
26. CN(Cc1ccccc1)C(=O)Cn1nnc(-c2ccccc2)c1COc1ccccc1
  .	-3.8	.	.	1.3	.	i
27. CCn1c(SCC(=O)NC(=O)NCc2ccco2)nc2sc(C)c(C)c2c1=O
  -4.2	-0.5	1.1	26.6%	.	0.798	.
28. CCOC(=O)C1CCCN(C2=NC(=O)/C(=C/c3ccc(O)c(OCC)c3)S2)C1 (stereo unspecified)
  0.0	8.4	-7.2	3.9%	2.9	0.674	i
29. Cc1cccc(NC(=O)CSCc2c(C)noc2C)c1C
  1.7	-3.1	-0.2	-2.5%	.	0.741	.
30. CN1CCN(C(=O)/C=C/c2ccc([N+](=O)[O-])cc2)CC1
  6.3	0.2	3.7	-6.4%	-3.8	0.688	i
31. O=C1NCCCC1C(=O)Nc1cccc(C(F)(F)F)c1 (stereo unspecified)
  1.5	-0.6	-1.0	7.2%	.	0.745	.
32. CC(=C/c1ccco1)/C=N/N1CCN(c2ccccc2)CC1
  .	-1.2	-1.0	5.7%	.	.	.
33. CN(C(=O)C1CCC(=O)N(Cc2ccccc2F)C1)C1CCOCC1 (stereo unspecified)
  5.6	1.9	8.0	.	3.2	0.696	i
34. COc1ccc(-c2cc(C(=O)N3CCCC3)c3ccccc3n2)cc1
  i	-1.2	-0.3	.	-7.3	0.679	i
35. CC(=O)c1ccc(NC(=O)C2CCN(S(=O)(=O)c3ccc4c(c3)N(C(C)=O)CCO4)CC2)cc1
  2.1	-4.3	-3.4	.	-1.6	0.653	i
36. CN1CCN(c2ncnc3c2ncn3[C@H]2CN(Cc3ccc4c(c3)OCO4)C[C@@H](CO)O2)CC1
  .	2.3	.	.	-0.6	.	i
37. Cc1ccc(S(=O)(=O)N(Cc2ccccc2)c2ccccc2C(=O)Nc2ccccc2C(=O)NCc2ccco2)cc1
  -6.1	-1.9	-0.9	6.8%	0.7	0.737	i
38. CCCCN1CCNC[C@@H]1Cc1ccc(O)cc1
  2.3	-1.7	-3.6	.	2.9	.	i
39. Cc1cccc(OCc2nnc(SCC(=O)c3cccs3)n2C)c1C
  5.4	3.3	3.0	8.5%	-16.0	0.698	i
40. CCOc1ccccc1NC(=S)N1CCCCCC1
  1.2	0.9	2.4	-2.8%	-0.7	0.747	i
41. Cc1ccc(CNC(=O)C2CCN(S(=O)(=O)c3ccc4c(c3)CC(C)N4C(=O)C3CC3)CC2)cc1 (stereo unspecified)
  8.3	-1.2	4.1	-8.0%	1.9	0.688	i
42. Fc1ccc(Nc2nc(N3CCOCC3)c3ccccc3n2)cc1
  -2.8	1.6	-0.1	-11.1%	.	0.673	.
43. COc1ccccc1CC(NC(C)=O)C(=O)NC1CCN(c2nnnn2-c2ccccc2)CC1 (stereo unspecified)
  1.7	1.6	1.8	0.8%	.	0.735	.
44. CCOC(=O)C1=C(O)c2ccccc2C(=O)/C1=C\c1ccc(C)cc1
  -38.0	5.9	.	?	.	0.639	.
45. Cc1ccc(N2C(=O)N(CC(=O)N3CCc4ccccc43)C(=O)C2C)cc1 (stereo unspecified)
  .	1.4	.	-2.0%	-0.1	.	i
46. CC(NC(=O)CCNS(=O)(=O)c1cccc2nonc12)c1ccccc1 (stereo unspecified)
  3.7	-0.3	0.7	3.4%	-8.9	0.695	i
47. CCc1nc2ccc(C(=O)Nc3cccc(NS(C)(=O)=O)c3)cn2c1N(CCC(C)C)CCN(C)C
  .	5.0	.	.	8.7	.	i
48. O=C(COc1ccccc1Cl)Nc1ccc(Cl)cn1
  3.4	0.2	0.2	14.1%	.	0.692	.
49. O=C(c1cnn2c(C(F)F)cc(C3CC3)nc12)N1CCOCC1
  2.3	-0.2	?	-3.2%	.	0.792	.
50. CCCCCC1NC(=O)NC1CCCCCC(=O)O (stereo unspecified)
  2.9	4.4	2.4	4.2%	.	0.66	.
51. CSc1nc2sc3c(c2c(=O)[nH]1)CCc1ccccc1-3
  -1.5	-3.0	1.3	-23.5%	-3.9	0.741	i
52. CCOC(=O)N1CCN(Cc2nc(N)nc(Nc3ccc(OC)cc3)n2)CC1
  6.0	2.5	-2.5	7.8%	0.9	0.723	i
53. Cc1ccnc2nc(C(=O)OCC(=O)c3ccc(NC(=O)CC(C)C)cc3)nn12
  -0.1	3.5	.	2.0%	-1.1	0.646	i
54. Cc1cccc(N(CC(=O)NC2CCCC2)C(=O)c2nsc(Cl)c2Cl)c1C
  -0.4	0.1	3.6	.	-2.0	0.678	.
55. CCCN(CC(=O)Nc1ccccc1C)C(=O)c1cc(=O)[nH]c2ccccc12
  -10.8	-5.4	?	.	-0.6	0.662	i
56. COc1ccccc1N1CCN(c2nc(C)cc(C)c2C#N)CC1
  1.8	0.3	1.6	.	1.9	0.674	.
57. Cc1coc2c(C)c3oc(=O)c(CCC(=O)NCCN4CCOCC4)c(C)c3cc12
  -27.8	1.9	-0.1	.	-7.7	0.657	i
58. C/C(NC(=O)c1ccccc1)=C1/C(=O)CC2C1C2(C)C (stereo unspecified)
  -0.2	0.8	-3.6	-0.1%	.	0.701	.
59. CCOC(=O)c1ccc(-c2ccc3oc(-c4ccsc4)cc(=O)c3c2)cc1F
  -0.3	-0.3	.	.	-0.8	0.685	i
60. O=C(CNC(=O)c1ccccc1)N/N=C/c1cccs1
  .	-0.8	?	6.2%	-2.7	.	i

Next part.
Sequence of screens: UCH37 DUB inh	HNF4A DNA FP	RanGTP-Imp inh	Vif TR-FRET	AF4-AF9 inh	E coli growth	FGF22 binding
61. O=C1C(=Cc2ccncc2)CCCc2ccccc21
  .	2.1	.	-0.9%	6.3	.	i
62. Cc1cccc(N2CCN(C(c3cccs3)c3nnnn3C(C)(C)C)CC2)c1C (stereo unspecified)
  2.5	-0.3	0.0	0.9%&1.1%	.	0.705	.
63. O=C(NCc1ccc(OC(F)(F)F)cc1)c1cccc2c1C(=O)c1ccc(N3CCC(Cc4ccccc4)CC3)cc1S2(=O)=O
  0.1	5.5	.	.	-6.0	0.721	i
64. COc1ccc(NC(=O)Nc2ccccn2)cc1OC
  -1.0	2.1	27.2*	7.0%	-17.8	0.697	i
65. O=C(NNC(=S)Nc1ccc(Br)cc1)c1ccccc1
  0.5	-1.4	2.0	.	-1.0	0.66	i
66. Cc1ccc(/C=C/C(=O)O)cc1S(=O)(=O)N1CCCc2ccccc21
  4.0	-3.1	0.7	4.0%	-4.1	0.669	i
67. C=Cc1ccc(CSc2cc(C)nc3nc(C)nn23)cc1
  -1.3	9.2	1.8	-4.5%	-1.7	0.704	i
68. Clc1ccccc1C1=CC(c2ccco2)n2ncnc2N1 (stereo unspecified)
  -53.1	-29.4	42.6*	-9.1%	1.4	0.674	i
69. Cc1nc(-c2nc(-c3c(C(=O)NNC(=O)c4ccc(Cl)cc4)noc3C)cs2)cs1
  1.4	-6.3	16.8*	-5.5%	-1.7	0.677	i
70. CC(C)C(=O)Nc1ccc(NC(=O)c2ccc([N+](=O)[O-])cc2Cl)cc1
  5.4	1.4	1.8	25.0%	-10.5	0.707	i
71. COc1ccc(Nc2nc(-c3ccccc3)c3ccccc3n2)cc1
  1.6	-1.5	-0.5	.	6.6	0.723	i
72. COC(=O)C1CCN(C(=O)c2cc(-c3ccc(Cl)s3)nc3ccccc23)CC1
  -171.6	0.0	.	.	12.0	0.631	i
73. CC1C(c2ccccc2)=NNc2nc3c(c(=O)n(C)c(=O)n3C)n21 (stereo unspecified)
  -66.7	.	10.0	29.2%	.	0.65	.
